Compound activity deposited in PubChem BioAssay by National Center for Advancing Translational Sciences (NCATS).
D2 PAM: human D2 receptor positive allosteric modulation | P14416 | DiscoveRx D2 beta-arrestin cells, luminescence, 90 min; 100% = 57 uM dopamine signal | potentiation, % (no concentration beside the values) | actives 0.23% (n = 360,000) | AID 624464; active = potentiation of 50% or more; inconclusive = 30% to 50%; inactive = 30% or less;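 also: compound concentration not given in the record; tested on top of an EC20 dose of dopamine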
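D2 cells co-treated with compound plus 50 nM dopamine (EC20) for 90 min at 37 deg C to detect potentiation. Beta-arrestin recruitment was read as enzyme-fragment luminescence after 1 h at ambient temperature. Full response was set by 57 uM dopamine.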
Six1-Eya2 inh: inhibitors of human Six1/Eya2 interaction; Q15475+O00167; AlphaScreen GST-Six1/His-Eya2 binding, biochemical; stronger effect = lower value; control for the full effect not named in the record; activity change, % (no concentration beside the values); actives 0.56% (n = 360,000); AID 651725; in the data active = activity change below about -65%; inconclusive = about -30% to -65%; inactive = above about -30%; also: % is scaled to controls: 0 for no effect and ±100 for the full control effect; compound concentration not given in the record
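Compounds are tested against tagged Six1 and Eya2 proteins bridged by glutathione donor and nickel acceptor beads; after a one-hour incubation at 37 °C without light, AlphaScreen emission is recorded.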
PINK1 modulator: PINK1 expression modulation. PINK1 immunofluorescence, high-content cytometry, 24 h. Potency, µM (doses to about 76.6 µM), without a hit: top-dose activation (PINK1 increase), most hits filed as activators. actives 0.2% (n = 410,000). AID 624263; active = well fitted activation curve with a large enough effect; inconclusive = small, poorly fitted or top-dose-only effect; inactive = flat fitted curve, though single readings scatter; cell line not stated here;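 also: potency is read from the fitted curve at half-maximal effect; % of control where 0% means no effect; nearly all actives have a fitted effect of over 65% in size; a mitochondrial uncoupler was the plate control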
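Stable cell line treated 24 h with compounds at 5 concentrations (CCCP controls), then fixed and immunostained for PINK1 plus nuclear and cell stains; PINK1 immunofluorescence quantified by laser-scanning microplate cytometry.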
CtBP-E1A blk: blocks the CtBP interaction with E1A; activity change, % (test concentration not listed); AlphaScreen GST-E1A/His-CtBP binding, 1536-well; stronger effect = lower value; control for the full effect not named in the record; actives 0.49% (n = 340,000); in the data active means activity change below about -65%; inconclusive means about -30% to -65%; inactive means above about -30%; also: % is scaled to controls: 0 for no effect and ±100 for the full control effect; compound concentration not given in the record
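Steps: dispense buffer (Tris pH 8.0, NaCl 300 mM, TCEP 1 mM, BSA, Tween 20); add 5X protein mix (GST-E1A, His-CtBP, 125 nM each); pin 23 nL compound; 2 h at 37 °C, dark; add 5X beads (50 ug/mL); 1 h; read.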
Sfp PPTase inh: blocks B. subtilis Sfp PPTase activity | Biochemical Sfp PPTase activity, qHTS | Potency, µM, for inactives: max response, negative = inhibition, most hits filed as inhibitors | Q9F4F7 | AID 1490 | actives 3.5% (n = 310,000); active = well fitted inhibition curve with a large enough effect; inconclusive = small, poorly fitted or top-dose-only effect, or another doubt; inactive = no such curve, though single readings can be large or run the other way;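 also: the enzyme is Sfp with the accession as filed and its product quenches rhodamine fluorescence; potency is read from the fitted curve at half-maximal effect; 0% = enzyme reaction without inhibitor and -100% = no enzyme wells; top concentration of the series not given in the record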
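Sfp 15 nM + cpd, 15 min RT; start w/ rhodamine-CoA 5 uM, BHQ-2-YbbR 12.5 uM (final); 50 mM Hepes pH 7.6, 10 mM MgCl2, 0.01% NP-40, 0.01% BSA; read 525/598 nm at 0 and 30 min.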
TRPV1 PAM: enhances activation of the human vanilloid receptor TRPV1; TRPV1-expressing cells, Fluo-8 calcium influx, capsaicin EC20 potentiation; host cell line not named in the record; control for the full effect not named in the record; potentiation, % at 8.33 µM; actives 0.02% (n = 320,000); active means potentiation above 80%; inconclusive means 30% to 80%; inactive means below 30%; also: 0% is about no effect
Target sequence (Q8NER1 whole entry, looked up): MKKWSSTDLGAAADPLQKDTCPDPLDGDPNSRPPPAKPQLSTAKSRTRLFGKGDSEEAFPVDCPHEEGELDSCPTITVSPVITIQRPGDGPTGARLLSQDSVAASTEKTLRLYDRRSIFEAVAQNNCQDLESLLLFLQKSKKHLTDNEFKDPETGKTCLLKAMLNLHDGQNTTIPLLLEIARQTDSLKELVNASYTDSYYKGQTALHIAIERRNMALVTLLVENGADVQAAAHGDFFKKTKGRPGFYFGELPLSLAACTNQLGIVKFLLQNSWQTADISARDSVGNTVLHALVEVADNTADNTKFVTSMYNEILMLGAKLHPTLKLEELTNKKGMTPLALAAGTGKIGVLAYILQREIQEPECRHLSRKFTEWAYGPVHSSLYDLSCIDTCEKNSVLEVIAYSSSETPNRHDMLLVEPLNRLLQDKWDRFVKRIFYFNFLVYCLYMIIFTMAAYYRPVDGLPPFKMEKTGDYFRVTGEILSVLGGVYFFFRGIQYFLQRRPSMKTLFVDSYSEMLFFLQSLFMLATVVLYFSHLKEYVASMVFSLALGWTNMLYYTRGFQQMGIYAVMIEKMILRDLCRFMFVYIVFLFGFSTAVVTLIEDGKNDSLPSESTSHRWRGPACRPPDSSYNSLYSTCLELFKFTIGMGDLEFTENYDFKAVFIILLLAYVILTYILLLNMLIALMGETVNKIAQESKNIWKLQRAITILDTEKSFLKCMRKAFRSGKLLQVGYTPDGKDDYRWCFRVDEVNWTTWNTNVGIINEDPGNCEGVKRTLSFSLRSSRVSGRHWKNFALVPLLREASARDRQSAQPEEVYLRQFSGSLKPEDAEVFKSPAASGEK
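Fluo-8 calcium influx in TRPV1-expressing cells, kinetic read (ex 480/em 520 nm). Compound added and read 3 min for agonist activity, followed by capsaicin at EC20 final and 2 min further read for enhancement.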
D2 agonist: human D2 receptor agonism in beta-arrestin assay; DiscoveRx PathHunter D2 beta-arrestin, luminescence, 90 min; 100% = 57 uM dopamine signal; P14416; activation, % (no concentration beside the values); AID 624465; actives 0.084% (n = 360,000); in the data active = activation above about 40%; inconclusive = about 15% to 40%; inactive = below about 15%; also: compound concentration not given in the record; the text of the record calls up to 30% inactive
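Agonist mode: compounds alone added to overnight-plated D2 PathHunter cells for 90 min at 37 C, with 57 uM final dopamine (EC100) defining full response. Beta-arrestin recruitment detected by chemiluminescent reagent, read after 1 h at ambient temperature.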
* = called active by the depositor; u = inconclusive; x = not tested or not shown; [ ] = another dose, or the depositor's remark.

SMILES	D2 PAM	Six1-Eya2 inh	PINK1 modulator	CtBP-E1A blk	Sfp PPTase inh	TRPV1 PAM	D2 agonist
Cc1ccc(C(=O)N/C(=C/c2ccc(C(C)C)cc2)C(=O)NCCCN2CCOCC2)cc1	-14	4	1.3%	x	8%	-11	-5.4
O=C(NCC1CCCO1)C(c1ccc(F)cc1)N(Cc1ccc(F)cc1)C(=O)Cn1nnc(-c2cccs2)n1 (stereo not drawn)	-1	0	8.1%	0	4%	2	-1.3
CC(=O)Nc1ccc2c(c1)N(C(=O)CN(C)C)c1ccccc1CC2	8	-4	0.8%[38.3 µM]	2	9%	-2	-1.5
C[C@@H]1COC(=O)[C@@H](CC(=O)OC(C)(C)C)C/C=C\C[C@H](CC(=O)NCCO)C(=O)N1	-9	1	-0.6%	x	x	x	-4.2
CCCc1noc2c1C(c1ccoc1)C(C#N)=C(N)N2 (stereo not drawn)	-9	3	1.7%	10	-3%	4	-2.8
CC(=O)c1cccc(S(=O)(=O)N2CCN(c3nc4cc(C)cc(C)c4cc3C#N)CC2)c1	-6	4	0.2%	9	1%	3	-3.1
CCC(C(=O)NC(C)(C)C)N(Cc1cccs1)C(=O)CNS(=O)(=O)c1ccccc1 (stereo not drawn)	2	3	-0.4%	2	11%	-4	5.1
COc1ccc(NC(=O)CCOc2ccccc2F)cc1S(=O)(=O)N1CCCCC1	-4	-20	0.2%	-10	x	x	-2.5
Nc1nonc1C(=O)N/N=C/c1cc2c(cc1[N+](=O)[O-])OCO2	1	-8	40µM*	-28	-8%	0	5.9
CN(CCC#N)C(=O)CC1(Cc2ccccc2)CCOC(C)(C)C1 (stereo not drawn)	-2	6	-0.2%	6	5%	-4	-2.1
CC1CCN(C(=O)COC(=O)c2ccc(N3CCCC3=O)cc2)CC1	2	5	2.6%	0	x	-5	-2.9
Cc1c(Cl)cccc1NC(=S)NCCc1ccc(F)cc1	-6	8	9.5%	-14	16%	-9	3.2
Cc1n[nH]c(=O)c2c(NC(=O)CSc3nncs3)oc(C)c12	-7	0	2.0%	0	x	-1	-2.0
CCC[C@@H]1CCCO[C@@](C(=O)NCc2ccccn2)(C(F)(F)F)C1	-2	-2	2.4%	x	3%	x	-0.4
COCCN(CC1CCCN(C2Cc3ccccc3C2)C1)C(=O)c1cccc(C)c1 (stereo not drawn)	-36	0	-0.8%	-1	2%	6	0.7
COc1ccc(C(CC(=O)Nc2nccs2)n2cccc2)cc1 (stereo not drawn)	5	-19	-1.4%	-21	16%	-15	-2.3
CCCNC(=O)C1(C)CCCN(Cc2ccc(-c3ccccc3)cc2)C1 (stereo not drawn)	-10	5	26%	-1	x	x	-2.6
O=C(NC(O)C(=O)c1cccs1)c1cccnc1 (stereo not drawn)	-3	5	6.3%	5	5%	1	-3.6
CC(C)COc1cccc(C(=O)N(C)CC(=O)Nc2cccc3ccccc23)c1	-13	5	2.3%	-3	x	x	-8.9
O=S(=O)(NCC(c1ccco1)N1CCc2ccccc21)c1ccccc1 (stereo not drawn)	4	-26	1.5%	-5	x	15	-3.4
COc1ccccc1CCNC(=O)C(=O)NCC1OCCN1S(=O)(=O)c1ccccc1 (stereo not drawn)	-2	-1	0.8%	3	17%	0	-0.7
CCOC(=O)C1CCCN(S(=O)(=O)c2cc3[nH]c(=O)c(=O)[nH]c3cc2C)C1 (stereo not drawn)	-2	-4	2.3%	3	28%	-6	-2.0
COc1ccc(CCn2nnnc2CN2CCN(C(=O)c3ccco3)CC2)cc1OC	0	2	1.7%	5	18%	12	0.6
CC(C)[C@H](NC(=O)c1c(F)cccc1F)C(=O)Nc1cccc(Br)c1	-5	1	6.2%	2	12%	11	-1.8
Nc1c(C(=O)NC2CCCC2)c2nc3ccccc3nc2n1/N=C/c1ccco1	-7	3	7.2%	-4	4%	8	-1.0

Look-ups from above:
`Cc1ccc(C(=O)N/C(=C/c2ccc(C(C)C)cc2)C(=O)NCCCN2CCOCC2)cc1` | D2 agonist = -5.4
`CCC(C(=O)NC(C)(C)C)N(Cc1cccs1)C(=O)CNS(=O)(=O)c1ccccc1` (stereo not drawn) | D2 agonist = 5.1
`CCCNC(=O)C1(C)CCCN(Cc2ccc(-c3ccccc3)cc2)C1` (stereo not drawn) | D2 agonist = -2.6
`CC(C)COc1cccc(C(=O)N(C)CC(=O)Nc2cccc3ccccc23)c1` | Six1-Eya2 inh = 5

Next section
SMILES	D2 PAM	Six1-Eya2 inh	PINK1 modulator	CtBP-E1A blk	Sfp PPTase inh	TRPV1 PAM	D2 agonist
NNC(=O)C(Cc1c[nH]c2ccccc12)NC(=O)c1ccccc1 (stereo not drawn)	-5	-5	0.0%	-4	-9%	u	-4.7
O=C(C1CCCN(Cc2ccc3c(c2)OCO3)C1)N1CCCC1 (stereo not drawn)	-4	10	-1.7%	5	-12%	1	-0.7
Brc1cccc(-c2nnc3sc(CNCc4ccco4)cn23)c1	-3	-3	1.9%	-19	8%	x	0.5
O=C(Nc1cccc(NC(=O)c2ccco2)c1)c1ccccc1	-5	21	-1.5%	-6	9%	4	-3.4
Cc1ccc2c(C(=O)CN3CCN(C(=O)c4ccco4)CC3)c(C)[nH]c2c1	-4	-9	-1.4%	8	3%	0	-8.9
CCOC(=O)Nc1cccc(OCC(=O)Nc2ccccc2OCC)c1	-3	-3	4.7%	-2	8%	11	0.8
CCOc1cc(NC2CS(=O)(=O)CC2O)c(OCC)cc1NC(=O)c1ccccc1 (stereo not drawn)	u	-1	1.8%	-3	13%	1	8.3
COc1ccccc1C(NC(=O)C1CCN(CCc2ccc(Br)cc2)CC1)c1ccccn1 (stereo not drawn)	-14	-16	-0.4%	-12	x	x	-6.5
CC(C)(C)C(=O)NNc1nc(-c2ccccc2)c2cc(Br)ccc2n1	-26	-23	-2.0%	-26	5%	4	0.3
COc1cc(C(=O)N/N=C/c2ccc(OC(=O)N3CCOCC3)cc2)cc(OC)c1OC	-10	5	9.2%	x	-5%	u	-2.7
CC1(OC(=O)c2ccc(Cl)nc2)C(=O)C=C2C=C3CCCN3C=C2C1=O (stereo not drawn)	1	-21	-0.3%	-4	u	-18	0.5
C/C(=N\n1cnnc1)c1ccc(C#N)cc1	-4	2	-1.3%	8	15%	5	-4.6
CCN1/C(=C\C=C(C(C)=O)C(C)=O)Sc2ccccc21	-12	-20	u	-12	-2%	-5	-6.7
Cc1ccc(Cc2cnc(NC(=O)CN3CCOCC3)s2)cc1Cl	1	-2	x	8	-1%	-6	-0.8
CC(OC(=O)c1ccco1)C(=O)Nc1ccc(Cl)cn1 (stereo not drawn)	-2	-1	-0.6%	1	-5%	10	-0.7
O=C(c1cccnc1)N1CCN(S(=O)(=O)c2cccs2)CC1	-10	-2	0.0%	-5	3%	2	-4.5
Cc1nc(CS(=O)c2ccc(Cl)cc2)cc(NCc2ccc(Cl)cc2Cl)n1 (stereo not drawn)	-4	-3	u	10	8%	u	0.7
Cc1nc(NCC2CCCO2)c2nnn(Cc3ccccc3Cl)c2n1 (stereo not drawn)	-4	2	3.9%[38.3 µM]	2	17%	u	-2.3
Cc1cc(NC(=O)CSc2nc(C(C)C)nc3sc(C)c(C)c23)no1	3	-2	u	0	16%	-13	6.6
Cc1cc(C)c(O)c(-c2cc(C(=O)Nc3cccnc3)[nH]n2)c1	2	4	5.0%	u	0%	-18	2.8
Cc1cccc(OCCSc2nc3ccccc3n2CC(=O)O)c1	-4	5	-0.8%	x	-8%	4	0.0
CCCC[C@@H]1CC2=C(C(=O)OC(C)(C)O2)[C@@H](c2ccc(F)cc2)O1	x	1	3.1%	9	x	x	x
O=C(CC1S/C(=N/N=C2CCCCCC2)NC1=O)Nc1ccccc1F (stereo not drawn)	-5	3	0.7%	1	10%	10	-2.7
COc1ccc2c(c1)CCc1c(C(=O)N3CCCc4ccccc43)noc1-2	-6	-9	-5.0%[38.3 µM]	-6	2%	1	1.0
C/C(=N\NC(=S)NCCc1ccccc1)c1ccc(C)cc1	-3	-23	-0.3%	-16	-6%	-2	-3.6

Filtered by structure, those above containing an aryl thioether with sulfur outside any ring (3)
SMILES	D2 PAM	Six1-Eya2 inh	PINK1 modulator	CtBP-E1A blk	Sfp PPTase inh	TRPV1 PAM	D2 agonist
Cc1n[nH]c(=O)c2c(NC(=O)CSc3nncs3)oc(C)c12	-7	0	2.0%	0	x	-1	-2.0
Cc1cc(NC(=O)CSc2nc(C(C)C)nc3sc(C)c(C)c23)no1	3	-2	u	0	16%	-13	6.6
Cc1cccc(OCCSc2nc3ccccc3n2CC(=O)O)c1	-4	5	-0.8%	x	-8%	4	0.0

2 neighbouring entries out of the list so far:
SMILES	D2 PAM	Six1-Eya2 inh	PINK1 modulator	CtBP-E1A blk	Sfp PPTase inh	TRPV1 PAM	D2 agonist
NNC(=O)C(Cc1c[nH]c2ccccc12)NC(=O)c1ccccc1 (stereo not drawn)	-5	-5	0.0%	-4	-9%	u	-4.7
O=C(C1CCCN(Cc2ccc3c(c2)OCO3)C1)N1CCCC1 (stereo not drawn)	-4	10	-1.7%	5	-12%	1	-0.7

Following part.
SMILES	D2 PAM	Six1-Eya2 inh	PINK1 modulator	CtBP-E1A blk	Sfp PPTase inh	TRPV1 PAM	D2 agonist
O=C(COC(=O)c1ccco1)NCc1ccc(Cl)cc1	-6	6	0.3%	5	17%	-6	-4.5
Cc1ccc(-c2cc(-c3nnc(SCC(=O)NC(C)C(C)C)n3N)c3ccccc3n2)cc1 (stereo not drawn)	-1	-1	1.9%[38.3 µM]	-4	15%	-3	-1.6
N#CCC(N)=C(C#N)C#N	-8	-26	0.9%	-18	-12%	-9	-6.7
COc1ccc(CNC(=S)Nc2ccccc2C)cc1	-8	-16	2.8%	-12	15%	-7	-2.2
COc1ccc(OC(=O)c2cc(S(=O)(=O)N3CCCC3)ccc2Cl)cc1	-7	-4	x	-12	10%	0	1.7
CCOCC(=O)Nc1c(C(=O)Nc2ccc3c(c2)OCO3)oc2ccccc12	-7	19	4.9%	22	-30%	-16	-2.4
Cn1c(=O)c2c(nc(NCC3CCCO3)n2Cc2cccc(Br)c2)n(C)c1=O (stereo not drawn)	-8	-2	0.0%	4	4%	11	1.0
COc1ccc(N2COC3c4cccc5cccc(c45)C32)cc1 (stereo not drawn)	-47	u	3.9%	-27	-14%	0	-12
COc1cccc(-c2nnc(SCC(=O)Nc3ccc4c(c3)OCCO4)n2Cc2ccco2)c1	-18	u	-0.7%	-18	u	-4	-4.4
